Screening data: PubChem BioAssay, Broad Institute
Vaccinia stage: blocks a specific stage of Vaccinia orthopoxvirus infection; Vaccinia-infected cells, mCherry/Venus stage reporter fluorescence; active compounds read low; some inactives read as strong as hits; activity change (mCherry), % (no concentration beside the values); 89,000 tested, 0.01% active;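 active = mCherry past -33% and 40 or more points under the early reporter, replicates agreeing; inconclusive = past -33% without that gap or agreement; tested in A549 cells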;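 also: scaled between vehicle wells and reference inhibitor wells; 23 nL library stock went into each well; one replicate is shown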
Vaccinia stage Venus: recorded beside Vaccinia stage, whose call it bears; activity change (Venus), %; measured here: Venus reporter, other viral stage;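 negative = less Venus signal; first of two replicates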
* = called active by the depositor; ? = inconclusive; . = not tested or not shown; & = joins results of further samples.

A first look:
mol | Vaccinia stage | Vaccinia stage Venus
CO[C@H]1CN(C)C(=O)c2cc(NC(=O)NC3CCCC3)ccc2OC[C@@H](C)N(CC2CC2)C[C@H]1C | 8 | 10
Cc1noc(C)c1NC(=O)N(C)C[C@@H]1OCCCC[C@@H](C)Oc2ccc(NC(=O)Nc3ccc(C(F)(F)F)cc3)cc2C(=O)N([C@@H](C)CO)C[C@H]1C | 9 | 7
O=C(C1=C[C@@H](c2ccc3c(c2)OCO3)C[C@@H](OCc2ccc(CO)cc2)O1)N1CCN(Cc2ccc3c(c2)OCO3)CC1 | -27&-14 | -24&-11
C[C@H](NC(=O)C[C@@H]1C[C@H]2c3cc(NC(=O)NC4CCCC4)ccc3O[C@H]2[C@@H](CO)O1)c1ccccc1 | 3 | -1

The list itself (from the top)
mol | Vaccinia stage | Vaccinia stage Venus
CO[C@H]1CN(C)C(=O)c2cc(NC(=O)NC3CCCC3)ccc2OC[C@@H](C)N(CC2CC2)C[C@H]1C | 8 | 10
Cc1noc(C)c1NC(=O)N(C)C[C@@H]1OCCCC[C@@H](C)Oc2ccc(NC(=O)Nc3ccc(C(F)(F)F)cc3)cc2C(=O)N([C@@H](C)CO)C[C@H]1C | 9 | 7
O=C(C1=C[C@@H](c2ccc3c(c2)OCO3)C[C@@H](OCc2ccc(CO)cc2)O1)N1CCN(Cc2ccc3c(c2)OCO3)CC1 | -27&-14 | -24&-11
C[C@H](NC(=O)C[C@@H]1C[C@H]2c3cc(NC(=O)NC4CCCC4)ccc3O[C@H]2[C@@H](CO)O1)c1ccccc1 | 3 | -1
CCC(=O)N(C)C[C@@H]1Oc2cc(-c3ccc(F)cc3)ccc2S(=O)(=O)N([C@H](C)CO)C[C@@H]1C | 7 | 6
Cc1ccc(S(=O)(=O)Nc2ccc3c(c2)C(=O)N([C@H](C)CO)C[C@@H](C)[C@H](CN(C)C(=O)NC(C)C)O3)cc1 | 19 | 7
COc1ccc(S(=O)(=O)N(C)C[C@@H]2OCCCC[C@@H](C)Oc3ccc(NS(=O)(=O)c4ccc(Cl)cc4)cc3C(=O)N([C@@H](C)CO)C[C@@H]2C)cc1 | 4 | 13
C[C@@H]1CN([C@H](C)CO)C(=O)c2ccccc2-c2ccccc2CO[C@H]1CN(C)S(=O)(=O)c1cccc(C#N)c1 | 8 | -6
C[C@H]1CCCCO[C@H](CN(C)C(=O)Nc2ccc3c(c2)OCO3)[C@@H](C)CN([C@@H](C)CO)C(=O)c2cc(NC(=O)c3ccncc3)ccc2O1 | 29 | 19
C[C@@H]1CN([C@H](C)CO)C(=O)c2cccc(NC(=O)Nc3ccc4c(c3)OCO4)c2O[C@@H]1CN(C)Cc1ccccc1 | 0 | -2
CCC(=O)Nc1ccc2c(c1)OC[C@H](C)N(C(=O)CC1CC1)C[C@@H](C)[C@H](OC)CN(C)C2=O | -8 | -7
C[C@@H]1CN([C@H](C)CO)C(=O)c2cc(NC(=O)C3CCCCC3)ccc2O[C@@H](C)CCCCO[C@H]1CN(C)C(=O)NC1CCCCC1 | ? | .
C/C=C/c1ccc([C@@H]2[C@@H](C#N)N(c3ncc(CC)s3)[C@H]2CO)cc1 | -18 | -19
C/C=C/c1ccc2c(c1)O[C@@H](CN(C)C(=O)C1CCOCC1)[C@H](C)CN([C@@H](C)CO)S2(=O)=O | 18 | 12
CCC(=O)Nc1ccc2c(c1)C(=O)N(C)C[C@@H](OC)[C@H](C)CN(Cc1cccc(F)c1)[C@H](C)CO2 | 3 | 4
CCCNC(=O)N1C[C@@H]2[C@H](c3ccccc31)[C@H](CO)N2C(=O)Nc1ccccc1 | 6 | 0
c1cc(-c2ccc(C3[C@H]4CNC[C@@H]3N4CC3CCOCC3)cc2)ccn1 (stereo not given in full) | 22 | 3
Cc1ccc(S(=O)(=O)N(C)C[C@@H]2Oc3ncc(-c4ccccc4)cc3C(=O)N([C@H](C)CO)C[C@@H]2C)cc1 | -20&-23 | -21&-9
C[C@H]1CN([C@@H](C)CO)C(=O)c2ccccc2-c2ccccc2CO[C@H]1CN(C)Cc1ccc2c(c1)OCCN2C | -8 | -12
CC(C)c1cn(CC[C@@H]2CC[C@H](NC(=O)C3CCCC3)[C@@H](CO)O2)nn1 | -2 | 6
C[C@@H]1CN([C@H](C)CO)C(=O)Cc2cc(NS(=O)(=O)c3ccc(F)cc3)ccc2O[C@@H]1CN(C)S(=O)(=O)c1ccccc1 | -4 | -1
C[C@H](CO)N1C[C@H](C)[C@H](CN(C)Cc2ccc(-c3ccccc3)cc2)Oc2c(NS(=O)(=O)c3cn(C)cn3)cccc2C1=O | 0 | 5
C[C@@H]1CN([C@H](C)CO)C(=O)c2cc(NC(=O)Nc3cccc4ccccc34)ccc2O[C@@H]1CN(C)C | -14 | -12
O=C(NC1CCCC1)N1CC(=O)N2[C@@H](CO)[C@H](c3ccc(-c4ccc(F)cc4)cc3)[C@@H]2C1 | -2 | -4
C[C@@H]1CN([C@H](C)CO)S(=O)(=O)c2ccc(C#Cc3ccccn3)cc2O[C@@H]1CN(C)C(=O)C1CC1 | -12 | -7
C/C=C/c1ccc([C@@H]2[C@@H](CO)N(C(=O)CC)[C@H]2CNC(=O)C2CC2)cc1 | -3 | 0
O=C(c1ccc(F)cc1)N1CC(=O)N2[C@@H](CO)[C@@H](c3ccc(C#CC4CCCC4)cc3)[C@@H]2C1 | -12 | -12
COCC(=O)N(C)C[C@H]1Oc2ncc(C#Cc3ccc(OC)cc3)cc2C(=O)N([C@@H](C)CO)C[C@@H]1C | 17 | 6
COc1ccc(NC(=O)N[C@H]2CC[C@@H](CCNS(=O)(=O)c3cccc(Cl)c3)O[C@@H]2CO)cc1 | -8 | -2
CO[C@@H]1CN(C)C(=O)c2cc(NC(=O)Nc3cccc(Cl)c3)ccc2OC[C@H](C)NC[C@@H]1C | -9 | -6
Cc1ccc(S(=O)(=O)Nc2ccc3c(c2)C(=O)N([C@@H](C)CO)C[C@@H](C)[C@@H](CN(C)S(=O)(=O)c2cn(C)cn2)OCCCC[C@@H](C)O3)cc1 | -5 | 4
C[C@@H]1CN([C@H](C)CO)C(=O)c2cc(NS(=O)(=O)c3cn(C)cn3)ccc2O[C@@H](C)CCCCO[C@H]1CN(C)S(=O)(=O)c1ccccc1 | 11 | 9
O=C(C[C@@H]1C[C@H]2c3cc(NC(=O)C4CCC4)ccc3O[C@H]2[C@@H](CO)O1)NCc1cccnc1 | 17 | 9
COc1ccccc1-c1cn(CC[C@@H]2CC[C@@H](NC(=O)C3CCCCC3)[C@@H](CO)O2)nn1 | -1 | 6
C[C@@H]1CN([C@@H](C)CO)C(=O)Cc2cc(NC(=O)CCN3CCOCC3)ccc2O[C@H]1CN(C)CC1CCCCC1 | -15 | 0
COc1ccccc1S(=O)(=O)N[C@@H]1CC[C@@H](CCn2cc(C3CC3)nn2)O[C@H]1CO | 6 | 5
COCC(=O)N1C[C@H](C)[C@H](OC)CN(C)C(=O)c2ccc(NC(=O)c3ccc(F)cc3)cc2OC[C@@H]1C | 9 | -5
COc1ccccc1C#Cc1ccc([C@@H]2[C@H](C#N)N(C(=O)C3CC3)[C@H]2CO)cc1 | -14 | -11
C[C@H](CO)N1C[C@H](C)[C@@H](CN(C)Cc2ccc(C(F)(F)F)cc2)Oc2ccc(NC(=O)Cc3cn(C)c4ccccc34)cc2CC1=O | -27 | -9
COc1ccc2c3c([nH]c2c1)[C@@H](CO)N(C(=O)c1ccc(F)cc1)CC31CCN(C(=O)Nc2ccc(F)cc2)CC1 | 1 | -2

Some of the entries so far, with two lines to a compound:
Every second line gives: Vaccinia stage | Vaccinia stage Venus
> CO[C@@H]1CN(C)C(=O)c2cc(NC(=O)Nc3cccc(Cl)c3)ccc2OC[C@H](C)NC[C@@H]1C
  -9 | -6
> Cc1ccc(S(=O)(=O)Nc2ccc3c(c2)C(=O)N([C@@H](C)CO)C[C@@H](C)[C@@H](CN(C)S(=O)(=O)c2cn(C)cn2)OCCCC[C@@H](C)O3)cc1
  -5 | 4
> C[C@@H]1CN([C@H](C)CO)C(=O)c2cc(NS(=O)(=O)c3cn(C)cn3)ccc2O[C@@H](C)CCCCO[C@H]1CN(C)S(=O)(=O)c1ccccc1
  11 | 9

Carrying on:
mol | Vaccinia stage | Vaccinia stage Venus
CCS(=O)(=O)N1CCCCN2[C@H](CO)[C@H](c3ccc(C#Cc4ccccc4OC)cc3)[C@@H]2C1 | 8 | 4
O=C(C[C@H]1CC[C@H]2[C@@H](COC[C@@H](O)CN2C(=O)c2ccccc2F)O1)N1CCCCC1 | 23 | 15
COc1cccc(NC(=O)N2CC(=O)N3[C@H](CO)[C@@H](c4ccc(C5=CCCC5)cc4)[C@H]3C2)c1 | ? | .
OC[C@H]1[C@@H](c2ccc(/C=C/c3ccccc3)cc2)[C@H]2CN(Cc3cccnc3)CCCCN21 | ? | .
Cc1noc(C)c1NC(=O)N(C)C[C@H]1Oc2c(NC(=O)Nc3cccc4ccccc34)cccc2C(=O)N([C@@H](C)CO)C[C@@H]1C | 0 | 1
COc1ccc(NC(=O)Nc2ccc3c(c2)CC(=O)N([C@@H](C)CO)C[C@@H](C)[C@H](CN(C)C)O3)cc1 | -1 | -1
C[C@@H]1CN([C@@H](C)CO)C(=O)c2cccc(NC(=O)Nc3ccc(F)cc3)c2O[C@@H]1CN(C)Cc1ccc(Oc2ccccc2)cc1 | -23 | -16
Cc1cc(C(=O)Nc2cccc3c2O[C@@H](CN(C)C(=O)NC(C)C)[C@@H](C)CN([C@H](C)CO)C3=O)n(C)n1 | 23 | 10
C[C@H](CO)N1C[C@H](C)[C@@H](CN(C)C(=O)c2ccccc2)OCCCC[C@H](C)Oc2ccc(NS(=O)(=O)c3cn(C)cn3)cc2C1=O | 34 | 18
C[C@H](CO)N1C[C@H](C)[C@H](CN(C)S(C)(=O)=O)Oc2ccc(NC(=O)Nc3ccccc3)cc2CC1=O | 15 | 5
Cc1ccc(S(=O)(=O)NC[C@@H]2CC[C@H]3[C@H](CN3Cc3cc(-c4ccccc4)on3)O2)cc1 | -12 | 1
O=C(O)C[C@H]1C[C@H]2c3cc(NC(=O)NC4CCCC4)ccc3O[C@H]2[C@@H](CO)O1 | 15 | 14
C[C@H]1CCCCO[C@@H](CN(C)C(=O)Nc2ccc(C(F)(F)F)cc2)[C@@H](C)CN([C@@H](C)CO)C(=O)c2cc(NS(=O)(=O)c3cccs3)ccc2O1 | -23 | -10
C[C@@H]1CN([C@@H](C)CO)C(=O)Cc2cc(NS(=O)(=O)c3ccc(F)cc3)ccc2O[C@@H]1CN(C)S(=O)(=O)c1ccc(F)cc1 | 1 | 3
Cc1ccc(S(=O)(=O)N(C)C[C@@H]2Oc3cc(-c4cccc(F)c4)ccc3S(=O)(=O)N([C@@H](C)CO)C[C@@H]2C)cc1 | -31 | -33
COCCNC(=O)C[C@H]1CC[C@H]2[C@@H](COc3ccc(NS(=O)(=O)c4ccc(Cl)cc4)cc3C(=O)N2C)O1 | 0 | 2
CC(C)CN(C[C@H]1N[C@H](CO)[C@@H]1c1ccccc1)C(=O)C1CCCCC1 | 2 | 7
C[C@H](CO)N1C[C@H](C)[C@H](CN(C)S(=O)(=O)c2cccs2)OCCCC[C@H](C)Oc2ccc(NC(=O)Nc3ccc(F)cc3)cc2C1=O | -26 | -2
C[C@@H]1CN([C@@H](C)CO)C(=O)c2cc(NS(=O)(=O)c3ccc(Cl)cc3)ccc2O[C@@H]1CN(C)Cc1ccncc1 | -1 | 1
CC(C)NC(=O)N(C)C[C@H]1Oc2ccc(NC(=O)C3CCCCC3)cc2CC(=O)N([C@H](C)CO)C[C@@H]1C | 20 | 22
CCCNC(=O)N1CCC2(CC1)CN(Cc1ccccc1)[C@@H](CO)c1[nH]c3cc(OC)ccc3c12 | 4 | -4
COc1ccc(CN(C)C[C@H]2OCCCC[C@@H](C)Oc3ccc(NC(=O)Nc4c(C)noc4C)cc3C(=O)N([C@@H](C)CO)C[C@@H]2C)cc1 | 23 | 12
O=C(N[C@@H]1CC[C@H](CCNS(=O)(=O)c2ccc(Cl)cc2)O[C@@H]1CO)c1cnccn1 | 1 | -1
CN(C)C(=O)C[C@@H]1CC[C@@H](NC(=O)NC2CCCCC2)[C@@H](CO)O1 | -2 | 2
C[C@@H]1CN([C@H](C)CO)C(=O)Cc2cc(N(C)C)ccc2O[C@@H]1CN(C)Cc1ccncc1 | 10 | -1
COCC(=O)N(C)C[C@@H]1Oc2cc(C3=CCCCC3)ccc2S(=O)(=O)N([C@H](C)CO)C[C@@H]1C | -2 | 2
C[C@H]1CN([C@@H](C)CO)C(=O)c2cc(-c3ccc(C#N)cc3)cnc2O[C@@H]1CN(C)Cc1cccnc1 | 7 | 3
C[C@H](CO)N1C[C@H](C)[C@H](CN(C)S(=O)(=O)c2cccs2)Oc2ccc(NC(=O)C3CCCCC3)cc2CC1=O | -1 | 2
CN(C)C(=O)C[C@@H]1CC[C@H]2[C@@H](COC[C@@H](O)CN2S(=O)(=O)c2ccccc2)O1 | -3 | -2
C[C@@H]1CN([C@@H](C)CO)C(=O)c2cc(NS(=O)(=O)c3cn(C)cn3)ccc2O[C@@H]1CN(C)S(=O)(=O)c1cccs1 | 23 | 19
CO[C@H]1CN(C)C(=O)c2cc(NC(C)=O)ccc2OC[C@H](C)N(C(=O)C2CCC2)C[C@@H]1C | 2 | 6
C[C@@H]1CN([C@@H](C)CO)C(=O)c2cc(NC(=O)CCN3CCOCC3)ccc2O[C@H]1CN(C)Cc1ccc(C(=O)O)cc1 | -6 | -6
C[C@@H]1CCCCO[C@H](CN(C)Cc2ccncc2)[C@@H](C)CN([C@H](C)CO)C(=O)c2cc(NS(=O)(=O)c3ccccc3)ccc2O1 | 3 | -1
Cc1ccc(S(=O)(=O)N(C)C[C@H]2Oc3ccc(NC(=O)C4CCCCC4)cc3C(=O)N([C@@H](C)CO)C[C@H]2C)cc1 | -6 | -10
C/C=C/c1cnc2c(c1)C(=O)N([C@@H](C)CO)C[C@H](C)[C@@H](CN(C)C(=O)Nc1ccc(C(F)(F)F)cc1)O2 | 0 | -6
COc1ccc2c3c([nH]c2c1)[C@@H](CO)N(C(=O)C1CCCC1)CC31CCN(Cc2cccc(F)c2)CC1 | ? | .
CO[C@@H]1CN(C)C(=O)c2cc(NC(=O)C3CC3)ccc2OC[C@@H](C)N(C(=O)c2ccccc2)C[C@H]1C | 2 | 4

These rows are one share of the data; count on the stated rates, not on these rows.
